Source: PubChem BioAssay (several laboratories)
Beta2AR agonist: human beta-2 adrenergic receptor agonism by FAP. P07550. Am2.2-beta2AR cells, FAP receptor internalization, flow cytometry; reference of the scale not given here. response, % (no concentration beside the values). 0.43% of 340,000 active. AID 504454;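 active = response above a set limit, near 3 SD of response in nonfluorescent compounds, cut at about 42% in these data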;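 note: stock transfer was 100 nL into about 11 µL; a reference agonist was the positive control; negative values mostly stem from fluorescent compounds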
Target sequence (P07550 whole entry, looked up): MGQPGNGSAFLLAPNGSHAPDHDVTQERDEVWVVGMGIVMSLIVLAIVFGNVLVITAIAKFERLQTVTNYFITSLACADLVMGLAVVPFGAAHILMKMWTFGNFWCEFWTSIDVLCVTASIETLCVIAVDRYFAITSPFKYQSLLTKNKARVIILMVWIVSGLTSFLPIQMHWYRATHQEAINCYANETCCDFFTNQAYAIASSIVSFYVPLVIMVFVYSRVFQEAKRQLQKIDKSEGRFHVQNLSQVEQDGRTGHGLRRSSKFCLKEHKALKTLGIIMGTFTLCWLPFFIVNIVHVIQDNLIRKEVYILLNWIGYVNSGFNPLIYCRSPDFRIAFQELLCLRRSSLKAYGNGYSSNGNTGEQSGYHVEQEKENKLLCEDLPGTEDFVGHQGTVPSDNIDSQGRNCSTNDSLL
ALR inh: human ALR oxidase inhibition via reduced H2O2. purified ALR, DTT oxidation, H2O2 HRP-luminol luminescence. P55789. 3.8% of 290,000 active. inhibition, % (test concentration not listed);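 active = mean and each replicate at 75% or more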;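 note: stock transfer was 7.5 nL into about 7.5 µL; 0% = neutral wells and 100% = wells with inactivated enzyme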
Target sequence (P55789 whole entry, looked up): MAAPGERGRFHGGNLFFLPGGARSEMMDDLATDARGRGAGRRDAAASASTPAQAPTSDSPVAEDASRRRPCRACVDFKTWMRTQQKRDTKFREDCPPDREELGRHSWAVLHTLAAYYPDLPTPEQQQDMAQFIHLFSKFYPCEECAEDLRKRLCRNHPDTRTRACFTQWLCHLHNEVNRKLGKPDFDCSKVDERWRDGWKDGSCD
UCH37 DUB inh: blocks the human deubiquitinase UCH37 | inhibition, % (test concentration not listed) | 0.33% of 330,000 active | AID 588478 | purified proteasome/UCH37, Ub-AMC cleavage fluorescence;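 active = mean of two replicates above 20%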;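 note: 0% = compound-free wells with enzyme and 100% = wells lacking proteasome; stock transfer was 100 nL into about 20 µL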
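Reagent: Ub-AMC substrate; assay system: Proteasome-associated human UCH37 deubiquitinase; controls: no-proteasome and no-compound wells; read-out: % inhibition of Ub-AMC cleavage fluorescence; timing: 30 min preincubation with enzyme, 25 min cleavage at room temperature; signal: AMC fluorescence from Ub-AMC cleavage, excitation 355 nm, emission 460 nm; buffer or medium: Tris-HCl pH 7.4 plus ovalbumin, ATP-MgCl2, DTT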
Ecoli rRNA inh: selective bacterial rRNA inhibition in E. coli; E. coli WT GFP vs humanized-ribosome RFP mutants, fluorescence, 24 h; active compounds read low; DMSO median 0, no signal -100; GFP signal change (wild-type ribosome), % (concentration not given with the values); 1.6% of 350,000 active; AID 720706;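 active = significant combined selectivity score with lowered wild-type GFP, culture density cut under 30%, mutant RFP and density less affected; inactive = any of these conditions unmet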; note: one replicate is shown; some compounds called inactive have numbers as strong as hits
FGF22 binding: shifts melting point of recombinant human FGF22. calls only at 9.99 µM. Q9HCT0. recombinant FGF22 thermal shift, SYPRO orange fluorescence; percent of sucrose octasulfate shift, DMSO zero. 1.5% of 340,000 active;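 active = melting point raised past a set limit in the mean and every replicate; three in four hits are not shown here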
E coli growth: inhibitors of Escherichia coli growth | OD600, 23 h; active compounds read low | OD600 absorbance (test concentration not listed) | 0.21% of 330,000 active | AID 1053175;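 active = OD600 absorbance below the run mean of sample wells minus 3.6 SD, in any replicate, cut at about 0.56 in these data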;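 note: stock transfer was 300 nL into about 60 µL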
HNF4A DNA FP: change in binding of human HNF4 alpha to DNA; 0.3% of 360,000 active; activity change, % at 10 µM; P41235; HNF4a-FITC DNA binding, fluorescence polarization, 1 h; in the data active = activity change above about 30%, passing the limit was not always enough;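 note: controls were the assay level and a saturating level of protein; the project sought stronger binding though the title names inhibitors; some compounds called inactive have numbers as strong as hits; positive values seem to mean higher polarization but the record does not say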
Target sequence (P41235 whole entry, looked up): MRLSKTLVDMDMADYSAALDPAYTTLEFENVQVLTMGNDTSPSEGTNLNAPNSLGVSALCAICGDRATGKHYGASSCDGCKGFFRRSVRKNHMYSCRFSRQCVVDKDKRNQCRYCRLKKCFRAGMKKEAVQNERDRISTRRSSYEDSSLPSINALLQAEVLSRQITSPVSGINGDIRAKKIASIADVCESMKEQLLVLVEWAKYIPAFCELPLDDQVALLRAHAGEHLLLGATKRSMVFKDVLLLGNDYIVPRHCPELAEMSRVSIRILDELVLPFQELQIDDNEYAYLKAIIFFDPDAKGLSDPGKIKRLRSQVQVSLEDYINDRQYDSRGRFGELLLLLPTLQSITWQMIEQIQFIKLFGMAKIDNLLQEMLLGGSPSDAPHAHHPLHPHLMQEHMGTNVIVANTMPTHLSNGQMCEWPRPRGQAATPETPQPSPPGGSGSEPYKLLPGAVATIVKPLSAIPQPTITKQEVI
Ecoli rRNA inh OD600: further read-out of Ecoli rRNA inh, marked with its call; OD600 change, %; measured here: OD600 growth;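 optical density of the mix in the first replicate; 0 = DMSO median and -100 = no signal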
Ecoli rRNA inh RFP: further read-out of Ecoli rRNA inh, marked with its call; RFP signal change, %; measured here: RFP humanized mutant strains;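 first replicate; 0 = DMSO median and -100 = no signal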
* = called active by the depositor; i = inactive; nt = no result given; + = active, no number; & = joins results of further samples.

SMILES	Beta2AR agonist	ALR inh	UCH37 DUB inh	Ecoli rRNA inh	Ecoli rRNA inh OD600	Ecoli rRNA inh RFP	FGF22 binding	E coli growth	HNF4A DNA FP
O=C(COc1ccc(Nc2ccccc2)cc1)Nc1ccncc1	4	90*	1.3	-10	-17	6.6	i	0.66	4.0
CCC(C)c1ccc(OCC(=O)NNC(=O)C2CCCCC2)cc1 (stereo unspecified)	3	-2	0.2	nt	nt	nt	i	0.7	1.9
COCCCNC(=O)/C(C#N)=c1\s/c(=C\c2ccccc2OC(F)F)c(=O)n1CCCOC	-4	22	nt	nt	nt	nt	nt	nt	4.2
O=C(CSc1nnc(CNC(=O)c2ccc(F)cc2)o1)Nc1ccc2c(c1)OCO2	-5	-11	1.0	8	0	1.3	i	0.74	0.3
CCN1C(=O)C(CC(=O)Nc2ccc(OC)cc2)N(Cc2ccc3c(c2)OCO3)C1=S (stereo unspecified)	-12	-16	-4.9	-9	-7	2.2	+	0.74	2.9
Cc1ccc2[nH]c(C(=O)N3CCN(C(c4ccccc4)c4ccccc4)CC3)cc2c1	1	-7	1.2	10	11	1.0	i	0.68	-0.4
COc1ccc(-c2cc3ccc(O)cc3oc2=O)cc1	3	15	i	-17	-16	-4.0	i	0.69	3.1
NC(=O)Nc1ccc(F)cc1	1	2	-0.4	nt	nt	nt	nt	0.68	2.2
CC(C)(C)OC(=O)C(Oc1ccccc1[N+](=O)[O-])C(=O)OC(C)(C)C	nt	nt	nt	13	21	4.2	i	nt	0.0
O=C(Nc1nc2ccccc2n1CCN1CCCCC1)c1ccco1	4	-14	0.3	nt	nt	nt	nt	0.72	3.9
CCN(CC)c1ccc(/C=C2\CCC(/C=C(\C#N)C(=O)Nc3ccccc3F)=C2N2CCOCC2)cc1	-7	nt	11	nt	nt	nt	i	0.8	18
CC(C)(C)n1cnc2cc(NS(=O)(=O)c3ccc(Br)cc3)ccc21	3	0	2.6	nt	nt	nt	nt	0.74	1.2
Cc1noc(C)c1CSCC(=O)Nc1nc2ccc(S(C)(=O)=O)cc2s1	6	97*	3.1	12	11	6.1	i	0.65	1.2
CC1CN(c2ncnc3c2c(-c2ccccc2)cn3-c2ccc(F)cc2)CC(C)O1 (stereo unspecified)	13	nt	-2.0	-7	12	0.8	i	0.72	-2.2
O=C(C=Cc1ccco1)c1ccc([N+](=O)[O-])cc1	-2	nt	1.6	-13	15	-0.9	i	0.63	0.1
CCCCCC(=O)Nc1cccc(C2=NOC3(C2)C[C@H](C(N)=O)N(C(=O)COc2ccc(Cl)cc2)C3)c1 (stereo partly specified)	-5	-9	-0.1	-6	-4	24	i	nt	2.7
CC(=O)Nc1ccc(S(=O)(=O)N2CCSC2C(=O)O)cc1 (stereo unspecified)	-9	-4	-0.3	nt	nt	nt	nt	0.68	4.7
N#CC1(NC(=O)COC(=O)c2cc([N+](=O)[O-])ccc2N2CCCC2)CCCCC1	7	-1	6.4	-1	-1	0.7	i	0.64	0.3
COc1cc(-c2nc3ccccc3c(=O)n2N)cc(OC)c1OC	-5	-2	-1.5	10	11	1.8	i	0.68	0.7
CSc1ncccc1C(=O)Nc1ccc(S(=O)(=O)NC2=NCCCCC2)cc1	4	-6	2.6	12	-8	-0.8	nt	0.62	-3.9

In a second layout: 5 of the compounds above.
Values run as follows: Beta2AR agonist, ALR inh, UCH37 DUB inh, Ecoli rRNA inh, Ecoli rRNA inh OD600, Ecoli rRNA inh RFP, FGF22 binding, E coli growth, HNF4A DNA FP
- CC(C)(C)n1cnc2cc(NS(=O)(=O)c3ccc(Br)cc3)ccc21
  3, 0, 2.6, nt, nt, nt, nt, 0.74, 1.2
- Cc1noc(C)c1CSCC(=O)Nc1nc2ccc(S(C)(=O)=O)cc2s1
  6, 97*, 3.1, 12, 11, 6.1, i, 0.65, 1.2
- CC1CN(c2ncnc3c2c(-c2ccccc2)cn3-c2ccc(F)cc2)CC(C)O1 (stereo unspecified)
  13, nt, -2.0, -7, 12, 0.8, i, 0.72, -2.2
- O=C(C=Cc1ccco1)c1ccc([N+](=O)[O-])cc1
  -2, nt, 1.6, -13, 15, -0.9, i, 0.63, 0.1
- CCCCCC(=O)Nc1cccc(C2=NOC3(C2)C[C@H](C(N)=O)N(C(=O)COc2ccc(Cl)cc2)C3)c1 (stereo partly specified)
  -5, -9, -0.1, -6, -4, 24, i, nt, 2.7

Additional records follow:
SMILES	Beta2AR agonist	ALR inh	UCH37 DUB inh	Ecoli rRNA inh	Ecoli rRNA inh OD600	Ecoli rRNA inh RFP	FGF22 binding	E coli growth	HNF4A DNA FP
Cc1ccc(-c2nnc(N3CCN(C(=O)COc4cccc(C)c4)CC3)c3ccccc23)cc1	-4	4	1.8	-33*	-10*	3.0*	i	0.68	-2.7
CCCONC(=O)Nc1ccccc1[N+](=O)[O-]	4	-1	6.0	nt	nt	nt	nt	0.7	1.6
O=C(CSc1cccc[n+]1[O-])Nc1c(Br)cc([N+](=O)[O-])cc1Br	-6	-23	3.2	4	7	-1.8	i	0.66	-3.4
CCCSC1=N/C(=C/c2ccsc2)C(=O)N1c1ccccc1	2	-7	-22	nt	nt	nt	nt	0.68	2.4
CCCOc1cccc(C(=O)Nc2ccc3c(c2)OCCO3)c1	-17	0	1.7	-23	-32	-10	i	0.66	-2.3
COC(=O)c1c(C)[nH]c(C(=O)OCC(=O)c2c(N)n(CC(C)C)c(=O)n(C)c2=O)c1C	0	-1	3.8	-2	-27	6.0	i	0.71	3.1
Cn1c(N)c(C(=O)COc2ccc(C#N)cc2)c(=O)n(C)c1=O	1	-12	-2.0	18	14	2.4	i	0.68	-1.0
CCN(CC)C(=O)c1nc[nH]c1C(=O)N1CCN(C(=O)OC(C)(C)C)CC1	-1	0	0.6	17	8	20	i	0.7	-0.8
N#CCCN1CCN(S(=O)(=O)c2ccc(S(=O)(=O)NCc3ccccc3)cc2)CC1	5	41	1.2	6	13	0.4	nt	0.7	0.4
COc1cccc(C(=O)NNC(=O)c2ccc(NS(=O)(=O)c3cccs3)cc2)c1OC	4	nt	1.1	-1	-9	2.1	i	0.66	1.0
CCC(Oc1ccccc1)C(=O)NCCOC (stereo unspecified)	0	nt	0.4	nt	nt	nt	i	0.7	0.0
CC1CCCCC12NC(=O)N(CC(=O)NCc1ccco1)C2=O (stereo unspecified)	-7	nt	0.2	22	14	4.8	i	0.7	3.3
CN1CCN(C(=O)c2ccc3c(c2)N(C)C(=O)/C(=C/c2cccc(Cl)c2)S3)CC1	0	-11	0.9	-10	-26	1.1	i	0.69	3.5
COc1ccccc1CNC(=O)COC(=O)c1cc([N+](=O)[O-])ccc1N1CCOCC1	-7	3	4.3	-1	0	1.9	i	0.7	-2.6
O=C(O)C1=C[C@@H](C2CCCCC2)C[C@@H](OCCCCO)O1	0	2	0.8	-14	-13	-0.5	i	nt	-5.4
O=C(Nc1ccccc1Oc1ccccc1)C1CC1	-5	-2	-1.5	nt	nt	nt	nt	0.78	0.8
CC1(C)Cc2cccc(OCC(=O)NCc3ccccc3)c2O1	0	-8	2.0	-1	-2	-1.1	i	0.66	2.1
CCCc1nc(SCC(=O)NNC(=O)C2CCCCC2)c2ccccc2n1	1	nt	4.3	nt	nt	nt	nt	0.7	-0.1
COc1ccc(-n2c(C)c(C)c3c(NCCO)ncnc32)cc1	-5	6	0.5	nt	nt	nt	nt	0.65	6.2
CCCCOc1ccccc1C1NC(=O)NC(C)=C1C(=O)OCc1ccco1 (stereo unspecified)	-14	-1	-0.7	21	-4	4.9	i	0.69	2.0
Cc1ccnc(Nc2nc(-c3ccc(O)cc3O)cs2)c1	11	99*	4.5	-24	-52	3.0	nt	0.69	3.2
CC(NC(=O)CN1C(=O)NC2(CCCCCC2)C1=O)c1ccccc1Cl (stereo unspecified)	-5	-1	-1.5	1	1	-3.3	i	0.66	1.9
CC(=O)N(C)c1ccc(C(O)(C(F)(F)F)C(F)(F)F)cc1	2	-2	0.2	15	9	0.1	i	0.62	-3.3
S=C(NCc1ccncc1)Nc1cc(Cl)cc(Cl)c1	-1	-2	0.3	-7	-35	-5.8	i	0.56	0.3
COc1c(C)oc2cc(O)ccc2c1=O	4	-2	i	nt	nt	nt	nt	0.69	-3.2
c1cncc(-c2nc(NCC3CCCO3)c3ccccc3n2)c1 (stereo unspecified)	-14	1	4.0	nt	nt	nt	nt	0.65	0.7
O=C(Cn1cncn1)c1ccc(F)cc1F	-7	-2	1.4	nt	nt	nt	i	0.66	3.8
COc1ccc(N2CC(C)Cn3c2nc2c3c(=O)n(Cc3ccc(F)cc3)c(=O)n2C)c(OC)c1 (stereo unspecified)	5	-1	3.8	nt	nt	nt	nt	0.69	0.1
Cc1sc(NC(=O)CSc2nnc(N)s2)c(C#N)c1C	6	2	5.7	-6	-3	0.0	i	0.67	2.1
Cc1nn(CCc2nc(-c3ccco3)cs2)c2[nH]c(=O)cc(C(F)(F)F)c12	-9	6	0.0	-3	13	-3.8	i	0.59	-7.9
CN(CC(=O)Nc1cccc(F)c1)C(=O)c1cn2ccccc2n1	-10	2	0.6	-1	8	-2.3	i	0.68	-2.3
O=C(Nc1ccc(N2CCOCC2)cc1)c1cccc(S(=O)(=O)N2CCOCC2)c1	0	13	nt	2	3	-0.1	i	nt	3.9
O=C(O)c1cccc2c1C(=O)c1ccc(N3CCCCC3)cc1S2(=O)=O	-2	-3	6.6	9	14	-0.4	i	0.66	43*
Cc1ccc2oc(C(=O)N(Cc3nccn3C)C(C)C)c(C)c2c1	-2	-7	5.3	0	-11	-1.3	i	0.71	-0.5
O=C1CC(N2CCSCC2)C(=O)N1c1cccc(Br)c1 (stereo unspecified)	6	-5	-1.9	4	5	-0.5	i	0.65	0.0
O=C1Nc2ccc([N+](=O)[O-])cc2OC1CCN1CCN(Cc2ccccc2)CC1 (stereo unspecified)	4	nt	7.1	1	0	1.0	i	0.69	1.9
CCOC(=O)CNC(=O)N1CCCC(CNS(=O)(=O)Cc2ccccc2)C1 (stereo unspecified)	17	3	-3.6	10	3	0.4	i	0.69	0.4
CCOc1ccccc1NC(=O)C(c1ccccc1)N1CCN(C(=O)c2ccco2)CC1 (stereo unspecified)	-5	-15	2.3	nt	nt	nt	i	0.71	2.1
Cc1ccc(COC[C@H](CC(C)C)N2CCN(C(=O)c3cccc(C(F)(F)F)c3)CCC2=O)cc1	nt	nt	nt	-4	-25	9.1	i	nt	-5.4
CS(=O)(=O)NCCNc1ccc(C(F)(F)F)cc1[N+](=O)[O-]	-6	0	6.3	3	11	1.1	i	0.66	0.5
CCCCOc1ccc(S(=O)(=O)N2CCN(c3ccc(N4CCN(CC)CC4)nn3)CC2)cc1	5	nt	-64	6	6	-1.2	i	0.69	4.9
O=C(CN(Cc1ccc(F)cc1)C(=O)CCC(=O)Nc1nccs1)NCc1ccc(F)cc1	-1	-3	3.2	-1	-1	1.7	i	0.69	-0.1
COc1cccc(C(O)c2ncc(-c3cccc4ccccc34)[nH]2)c1 (stereo unspecified)	nt	nt	nt	-3	-10	2.9	i	nt	-0.6
COc1ccc(CNC(=O)CN2C(=O)NC3(CCCc4sccc43)C2=O)cc1OC (stereo unspecified)	-5	-6	1.3	4	10	-2.9	i	0.64	1.1
COc1cccc(C#Cc2ccc3c(c2)O[C@H](CN(C)C)[C@@H](C)CN([C@@H](C)CO)S3(=O)=O)c1	nt	nt	nt	-50&-19	-78&-58	-16&21	i	nt	-1.3
CCNC(=O)NC(=O)C(C)OC(=O)c1cc(S(=O)(=O)N2CCCCCC2)ccc1OC (stereo unspecified)	7	-3	1.3	nt	nt	nt	nt	0.69	2.1
CCN=C1S/C(=C\c2cn(C(C)=O)nc2-c2ccccc2)C(=O)N1CC	-14	-1	4.5	nt	nt	nt	nt	0.72	-4.1

This is a subset; count on the stated rates, not on these rows.
